# PV pol inh: inhibitors of poliovirus RNA polymerase binding and polymerization; P03300; % elongation, % (compound at 16.7 µg/mL); poliovirus polymerase elongation, fluorescence polarization; active compounds read low; hit rate 0.66% among 150,000; in the data active = % elongation below about 90%; note: some results filed as inactive read as strong as hits
# Target sequence (P03300 1749-2209 limits assumed): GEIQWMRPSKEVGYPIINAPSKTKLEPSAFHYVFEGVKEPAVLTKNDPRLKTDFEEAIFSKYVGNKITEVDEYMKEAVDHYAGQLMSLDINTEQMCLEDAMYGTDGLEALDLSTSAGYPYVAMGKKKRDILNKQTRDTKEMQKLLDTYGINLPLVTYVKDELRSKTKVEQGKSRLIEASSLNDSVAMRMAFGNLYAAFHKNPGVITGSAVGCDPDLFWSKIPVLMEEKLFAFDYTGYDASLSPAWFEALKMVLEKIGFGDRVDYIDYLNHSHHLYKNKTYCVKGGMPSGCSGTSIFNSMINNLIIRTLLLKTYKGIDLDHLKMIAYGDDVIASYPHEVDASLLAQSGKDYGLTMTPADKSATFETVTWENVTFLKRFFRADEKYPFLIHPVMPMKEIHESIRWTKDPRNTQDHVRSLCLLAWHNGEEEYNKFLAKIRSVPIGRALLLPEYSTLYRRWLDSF
# MenB inh: inhibitors of Mycobacterium tuberculosis MenB enzyme; AID 540299; hit rate 0.43% among 100,000; inhibition, %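 (about 12 µg/mL by stock and volumes)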; MenB enzyme assay, absorbance read-out; some hits fall short of the stated cut;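 active = mean of two replicates above 30%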;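 note: 0% = no compound and 100% = wells with inactive enzyme; the first replicate is given; strong numbers were not always called active; inactives centre near -10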
# Mtb MbtI inh: MbtI salicylate synthase inhibition; P9WFX0; inhibition, %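 (about 17 µg/mL by stock and volumes)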; hit rate 0.89% among 100,000; purified MbtI enzyme, fluorescence intensity read-out;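 active = above 50% in both replicates, above 80% if mildly self-fluorescent; inactive = the rest, strongly fluorescent compounds included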;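 note: 0% = mean of negative and 100% = mean of positive controls; one replicate is shown; some compounds called inactive have numbers as strong as hits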
# Target sequence (P9WFX0 whole entry, looked up): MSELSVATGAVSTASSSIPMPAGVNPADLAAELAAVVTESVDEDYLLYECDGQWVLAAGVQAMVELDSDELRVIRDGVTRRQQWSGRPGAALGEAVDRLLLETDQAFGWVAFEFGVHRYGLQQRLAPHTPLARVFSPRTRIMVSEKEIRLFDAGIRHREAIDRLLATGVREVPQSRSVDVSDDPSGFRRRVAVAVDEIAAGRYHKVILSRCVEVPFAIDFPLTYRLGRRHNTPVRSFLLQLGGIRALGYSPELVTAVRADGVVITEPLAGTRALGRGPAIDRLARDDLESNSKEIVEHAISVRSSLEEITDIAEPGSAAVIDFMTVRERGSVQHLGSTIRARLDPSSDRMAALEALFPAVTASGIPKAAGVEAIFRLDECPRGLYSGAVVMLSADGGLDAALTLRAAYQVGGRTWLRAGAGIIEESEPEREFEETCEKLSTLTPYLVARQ
# PV pol inh intensity: recorded beside PV pol inh, whose call it bears; % elongation; measured here: total intensity read-out; formula for this scale not given here;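 total fluorescence in place of polarization; lower means less elongation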
# * hit, by the source's call; x = no result given. Rows were taken by chance; any-hit rate near 1.7%.
# Short forms: A = PV pol inh; B = PV pol inh intensity; C = MenB inh; D = Mtb MbtI inh
CC1=NNC(=O)C1Oc1ccc(Cl)cc1Cl (configuration not stated)
  A: 102	B: 105	C: -10	D: -9

CC(C)C(C)(C#N)NC(=O)CSc1nc2ccccc2c(=O)n1C1CCCC1 (configuration not stated)
  A: 108	B: 104	C: 9	D: 20

CC1CCCN(c2ccc3nncn3n2)C1 (configuration not stated)
  A: 98	B: 93	C: -11	D: 1

CCCNC(=O)Cn1c2ccccc2c2nc(=O)cc(C)n21
  A: 102	B: 104	C: 12	D: 35

CN1C(=O)C(=Cc2coc3ccccc3c2=O)C(=O)N(C)C1=O
  A: 96	B: 98	C: 6	D: 0

C#CC(CC)(CC)Nc1ccsc1C(=O)O
  A: 99	B: 100	C: -16	D: 2

O=C(Cc1coc2cc3c(cc12)CCC3)NCCNc1ncc(C(F)(F)F)cc1Cl
  A: 97	B: 103	C: -32	D: 15

COc1cccc(NCc2cn(-c3ccccc3)nc2-c2cccs2)c1
  A: 105	B: 104	C: -20	D: 18

Cc1cc(C)nc(NS(=O)(=O)c2ccc(Br)cc2)n1
  A: 103	B: 99	C: -8	D: 18

Cc1occc(=O)c1OC(=O)c1ccc(Cl)cc1
  A: 102	B: 108	C: x	D: -4

N#CSCC(=O)c1cccs1
  A: 85*	B: 88*	C: -22	D: x

COc1ccc(CNC(=O)CN(c2ccccc2OC)S(C)(=O)=O)cc1
  A: 99	B: 101	C: 11	D: -6

COC(=O)C(C)NC(=O)c1cn(-c2ccccc2)nc1-c1ccc(F)cc1 (configuration not stated)
  A: 97	B: 100	C: x	D: -3

CCS(=O)(=O)N1CCc2cc(C(=O)CSc3nnc(C)s3)ccc21
  A: 101	B: 99	C: -14	D: 12

Cc1ccc(SCCC(=O)Nc2ccc(CC#N)cc2)cc1
  A: 100	B: 100	C: -21	D: -8

O=C1C2N=NN(Cc3ccccc3)C2C(=O)N1c1ccccc1 (configuration not stated)
  A: 102	B: 103	C: -3	D: -1

CCOC(=O)c1cc(C)n(-n2cnnc2)c1C
  A: 99	B: 98	C: -19	D: -2

CC(C)(C)OC(=O)NCC1CCN(S(=O)(=O)Cc2ccccc2)CC1
  A: 105	B: 98	C: -28	D: 0

CC(=O)NCCC(=O)N1CCN(S(=O)(=O)c2ccc(C(C)C)cc2)CC1
  A: 103	B: 109	C: -16	D: 7

Cc1ccccc1C=Nc1ccccc1C#N
  A: 109	B: 116	C: 0	D: x

NC(=O)CSc1nnc2n(-c3ccccc3)c(=O)c3c(n12)-c1ccccc1CC31CCCC1
  A: 101	B: 101	C: -1	D: -3

COc1ccc(-n2nc3c(c2NC(=O)c2ccccc2)CSC3)cc1
  A: 100	B: 99	C: -16	D: 17

CCCn1c2ccccc2c2cn[nH]c(=O)c21
  A: 101	B: 101	C: -10	D: 116

COc1ccc(C2CC(O)=C(C#N)c3nc4ccccc4n32)cc1 (configuration not stated)
  A: 102	B: 109	C: -23	D: 4

NNC(=O)CCc1ccccc1
  A: 107	B: 106	C: -18	D: x

Cn1cc(S(=O)(=O)N2CCc3ccccc32)cc1C(=O)NC1CCCCCCC1
  A: 103	B: 102	C: -11	D: -12

Cc1ccc(-c2csc(-c3cccnc3)n2)cc1C
  A: 104	B: 112	C: -25	D: x

CCN(CC)S(=O)(=O)c1ccc2[nH]c(=O)cc(C(=O)O)c2c1
  A: 103	B: 97	C: -5	D: 2

CC(C)(C)c1nnc2n(c1=O)N=C(c1ccc(F)cc1)CS2
  A: 101	B: 104	C: 9	D: 2

CC(NC(=O)c1ccccc1C(=O)NC(C)c1ccc2c(c1)OCCO2)c1ccc2c(c1)OCCO2 (configuration not stated)
  A: 103	B: 109	C: 0	D: -9

CCOC(=O)c1cnn2c(N)c(C#N)cnc12
  A: 100	B: 100	C: -2	D: x

C=CCn1c(SC(C)C(=O)NC(N)=O)nc2ccccc2c1=O (configuration not stated)
  A: 106	B: 105	C: -42	D: 18

Cc1ccccc1C1NS(=O)(=O)N=C1N (configuration not stated)
  A: 100	B: 103	C: 7	D: -3

CC1(C)CC(=O)c2c(-c3cccnc3)n[nH]c2C1
  A: 109	B: 101	C: -12	D: x

COc1ccc(NS(=O)(=O)c2ccc(Oc3c(C#N)cccc3C#N)cc2)cc1
  A: 106	B: 108	C: -18	D: -8

CN(C(=O)CSC(=S)N1CCCC1)c1ccccc1
  A: 101	B: 102	C: -1	D: x

COC(=O)c1cc2nc(-c3ccccc3)cc(C)n2n1
  A: 103	B: 104	C: -22	D: 1

C=CCn1c(N)nc2ccccc21
  A: 100	B: 101	C: -9	D: -8

NC(=O)CSc1oc(-c2ccccc2)nc1S(=O)(=O)c1ccccc1
  A: 100	B: 104	C: -1	D: -10

COC(=O)[C@@H]1CC(O)CN1C(=O)C12CC3CC(CC(C3)C1)C2 (some centres not stated)
  A: x	B: x	C: -13	D: -3

CCn1c2ccccc2c2cc(/C=C3\Cc4ccccc4C3=O)ccc21
  A: 108	B: 120	C: -27	D: 0

CC(C)n1nnnc1SCC(=O)OC1CCCCC1
  A: 102	B: 103	C: 4	D: -4

COc1ccc2c(c1)c(C(=O)N1CCCC1)c(C)n2Cc1ccccc1
  A: 101	B: 93	C: -25	D: 12

CCCCNC(=O)Cc1ccc(C)cc1
  A: 100	B: 105	C: -19	D: -16

CCn1c(-c2ccc3c(c2)OCCO3)cnc1SCC(=O)N1CCc2ccccc2C1
  A: 104	B: 102	C: -41	D: -14

COc1cccc(NC(=O)CC(C)NC2CC(C)(C)NC(C)(C)C2)c1 (configuration not stated)
  A: 100	B: 107	C: 4	D: 8

O=C1Nc2c(C(F)(F)F)cccc2C12SCCS2
  A: 99	B: 103	C: -2	D: -9

Cc1ccc2c(c1)C1CN(C)CCC1N2S(=O)(=O)c1ccc(C#N)cc1 (configuration not stated)
  A: 104	B: 108	C: 3	D: -4

S=c1[nH]ncc2ccccc12
  A: 100	B: 110	C: -35	D: 16

COc1ccc(CN2CCCC(C(=O)Nc3c(C)cccc3C)C2)cc1OC (configuration not stated)
  A: 105	B: 102	C: -78	D: 5

O=c1[nH]c(CSC2=NCCS2)nc2ccccc12
  A: 107	B: 106	C: -67	D: 9

CCN1c2ccccc2C2=C(C(c3ccccc3)C(C#N)=C(N)O2)S1(=O)=O (configuration not stated)
  A: 100	B: 103	C: 6	D: -15

CC(C)n1cnnc1SCC(=O)NC(=O)c1ccc(Cl)cc1
  A: 102	B: 97	C: -14	D: 11

O=C(OCC1CC(c2ccccc2)=NO1)c1cccc(C(=O)OCC2CC(c3ccccc3)=NO2)n1 (configuration not stated)
  A: 104	B: 108	C: -9	D: -5

OC(CNC(=S)Nc1ccccc1)c1ccccc1 (configuration not stated)
  A: 100	B: 99	C: -10	D: 2

C=CCn1c(SC)nc2sc(C)c(C)c2c1=O
  A: 104	B: 103	C: -5	D: -11

CCC(c1nnnn1Cc1ccccc1)N(Cc1cccs1)Cc1cc2ccc(C)cc2[nH]c1=O (configuration not stated)
  A: 104	B: 104	C: -1	D: 85

CCCn1c(N)nc2c1c(=O)[nH]c(=O)n2C
  A: 101	B: 99	C: -34	D: -16

O=C(NC1CCCC1)C1CCCN1C(=O)Nc1ccccc1 (configuration not stated)
  A: 102	B: 103	C: 16	D: -2

CN(C)/C=C1/C=C(c2ccccc2)SC1=S
  A: 98	B: 105	C: -21	D: 25

# Part of the list above with just MenB inh and PV pol inh.
canonical_smiles	MenB inh	PV pol inh
CCCn1c(N)nc2c1c(=O)[nH]c(=O)n2C	-34	101
O=C(NC1CCCC1)C1CCCN1C(=O)Nc1ccccc1 (configuration not stated)	16	102
CN(C)/C=C1/C=C(c2ccccc2)SC1=S	-21	98

# (next part)
# Short forms: A = PV pol inh; B = PV pol inh intensity; C = MenB inh; D = Mtb MbtI inh
O=C(c1cc(Cl)nc2ccccc12)N1CCc2ccccc2C1
  A: 98	B: 102	C: x	D: -15

Cc1nc2ccccc2n1CC(=O)OC(C)C(=O)NC1CCCC(C)C1C (configuration not stated)
  A: 99	B: 108	C: -12	D: -6

OC12CC3CC(CC(C3)C1)C2
  A: 110	B: 108	C: -16	D: -1

CC(C)(C)C1(C)OC(=O)C(=Cc2ccc(Br)o2)C(=O)O1 (configuration not stated)
  A: 122	B: 129	C: -36	D: x

Cc1c(C(=O)OCC(=O)c2cc(C)n(NC(=O)c3n[nH]c(=O)c4ccccc34)c2C)oc2ccc(Cl)cc12
  A: 105	B: 103	C: -6	D: -7

CS(=O)(=O)N1CCN(c2ccc(NC(=O)Nc3cccc(Cl)c3)cc2)CC1
  A: 100	B: 100	C: -30	D: x

Brc1ccc(CSc2nccn2Cc2ccccc2)cc1
  A: 100	B: 108	C: -42	D: x

O=C(c1ncoc1-c1cccs1)N1CCOCC1
  A: 99	B: 102	C: 8	D: 66

CCOc1ncccc1C(=O)Nc1ccc(-c2cn3c(n2)SCC3)cc1
  A: 101	B: 108	C: -7	D: 26

COc1cc(Br)cc2cc(C(=O)N3CCN(c4cc(C)ccc4C)CC3)c(=O)oc12
  A: 125	B: 127	C: -17	D: x

NC(=O)C1(NCCNC2(C(N)=O)CCCCC2)CCCCC1
  A: 100	B: 100	C: -46	D: -3

CC1CCC(C(C)C)C(OCC[N+](C)(C)C)C1 (configuration not stated)
  A: 102	B: 105	C: -23	D: -30

NC1=NC(=O)C(CC(=O)Nc2ccccc2)S1 (configuration not stated)
  A: 102	B: 103	C: -2	D: 2

Cc1cccc(NC(=O)c2ccc(=O)[nH]c2)c1
  A: 103	B: 106	C: x	D: 5

CCOC(=O)CSCc1cn2c(C)cc(C)nc2n1
  A: 101	B: 92	C: -21	D: 107

CC1CCCN(C(=S)NC(=O)C2CC2)C1 (configuration not stated)
  A: 110	B: 117	C: -30	D: 30

CN(C)N=Nc1ccc(S(=O)(=O)NC(=O)Cc2ccccc2)cc1
  A: 99	B: 97	C: 0	D: x

O=C(O)/C=N/NC(=O)c1ccccc1
  A: 101	B: 100	C: -7	D: 6

COc1ccc(CN(C)Cn2c(=S)oc3ccccc32)cc1
  A: 95	B: 96	C: 7	D: 28

CN(C)S(=O)(=O)c1ccc(NC(=O)CSc2ncccn2)cc1
  A: 103	B: 102	C: 11	D: 16

O=C1CSC(=NCc2ccccc2)N1
  A: 103	B: 102	C: x	D: -3

Cc1cccc(N(C)S(=O)(=O)c2ccc3c(c2)OCC(=O)N3)c1
  A: 102	B: 101	C: -11	D: 6

CCN(CC)c1ccc(C(=O)OCC(=O)N2CCc3ccccc32)cc1
  A: 101	B: 97	C: x	D: 0

OC(COc1ccc(Br)cc1)CN1CCCN(c2nc3ccc(Cl)cc3s2)CC1 (configuration not stated)
  A: 96	B: 104	C: -19	D: -9

CC(C)n1c(=S)[nH]c2scc(-c3cccs3)c2c1=O
  A: 105	B: 110	C: -54	D: 13

O=C1NC(=Nc2ccccc2Br)SC1(CO)CO
  A: 102	B: 103	C: -9	D: 1

C/S(=N\C(=O)Nc1ccc(Cl)cc1)c1sc(Cl)c2c1C(=O)CCC2 (configuration not stated)
  A: 107	B: 120	C: -17	D: -13

O=C(CCNC(=O)c1ccc(Br)cc1)Nc1nc2ccccc2[nH]1
  A: 104	B: 97	C: 8	D: 6

CCN(CC)CCCNc1nc(Cl)nc(Nc2ccc(F)cc2F)n1
  A: 100	B: 105	C: 3	D: x

CC(C(=O)N/C(N)=N/c1nc2ccccc2s1)N1C(=O)c2ccccc2C1=O (configuration not stated)
  A: 99	B: 90	C: -42	D: -2

# Structures shown so far containing a tert-butyl group, in the order listed:
# Short forms: A = PV pol inh; B = PV pol inh intensity; C = MenB inh; D = Mtb MbtI inh
CC(C)(C)OC(=O)NCC1CCN(S(=O)(=O)Cc2ccccc2)CC1
  A: 105	B: 98	C: -28	D: 0

CC(C)(C)c1nnc2n(c1=O)N=C(c1ccc(F)cc1)CS2
  A: 101	B: 104	C: 9	D: 2

CC(C)(C)C1(C)OC(=O)C(=Cc2ccc(Br)o2)C(=O)O1 (configuration not stated)
  A: 122	B: 129	C: -36	D: x

# (listing goes on)
# Short forms: A = PV pol inh; B = PV pol inh intensity; C = MenB inh; D = Mtb MbtI inh
O=C(Nc1cccc(O)c1)c1cccc(-n2cnnc2)c1
  A: 100	B: 104	C: -14	D: -2

CC1=C(c2ccccc2)[N+](=O)C(C)(C)N1[O-]
  A: 103	B: 99	C: -5	D: 21

O=C(CSc1nc2c([nH]c3ccccc32)c(=O)n1-c1cccc(Cl)c1)N1CCCCCC1
  A: 103	B: 107	C: -5	D: -28

CCCCC1SC(/N=C/c2ccc(Cl)cc2)=NNC1=O (configuration not stated)
  A: 106	B: 108	C: -2	D: x

Cc1[nH]c(=O)c(C#N)c(C)c1CCC(=O)NC1(C)CCS(=O)(=O)C1 (configuration not stated)
  A: 101	B: 100	C: 0	D: -9

CCCCn1c(N)c(N(CC(C)C)C(=O)COc2ccc(F)cc2)c(=O)[nH]c1=O
  A: 96	B: 97	C: -3	D: 10

O=C(NCc1ccccc1)C1C2CC3OC(=O)C1C3C2 (configuration not stated)
  A: 101	B: 105	C: -131	D: -9

CCC(=O)Nc1cc(C(=O)OCC(=O)c2cccs2)ccc1C
  A: 102	B: 101	C: -3	D: x

O=c1[nH]c(O)c(C=NCCCn2ccnc2)c(=O)[nH]1
  A: 100	B: 106	C: 9	D: 26

c1ccc(-c2nc(-c3ccco3)cs2)nc1
  A: 102	B: 89	C: -42	D: 2

CCCOc1ccccc1N
  A: 103	B: 105	C: -12	D: 2

Cc1nc2ccccc2c(=O)n1/N=C/c1ccc2c(c1)OCO2
  A: 102	B: 102	C: 10	D: 6

# High-throughput results deposited in PubChem by ICCB-Longwood Screening Facility, Harvard Medical School.
